Screens: PubChem, several laboratories
rRNA inh HTS – reduced GFP signal of wild-type E. coli, primary screen, bacterial rRNA inhibitor project, GFP/RFP fluorescence, OD600, single point | E. coli WT GFP vs humanized-ribosome RFP mutants, 24 h; hits give low values; DMSO median 0, no signal -100 | GFP signal change (wild-type ribosome), % (concentration not given with the values) | actives 1.6% (n = 350,000);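 active means significant combined selectivity score with lowered wild-type GFP, culture density cut under 30%, mutant RFP and density less affected; inactive means any of these conditions unmet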; further: one replicate is shown; some compounds called inactive have numbers as strong as hits
T cruzi inh – inhibitors of intracellular T. cruzi growth, primary screen, luminescence, NIH3T3 host cells; actives 1.4% (n = 300,000); AID 1885, 2009; T. cruzi beta-gal in NIH3T3, 90 h; inhibition, % (no concentration beside the values);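 active means mean inhibition across valid replicates above about 55%, limit read from the data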;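 further: signal also drops with host cell toxicity which is not excluded here; 0% = plate median of DMSO wells and 100% = zero luminescence signal; higher percent means less beta-gal luminescence so fewer parasites; stock transfer was 50 nL into about 50 µL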
Beta cell apopt – inhibitors of cytokine-induced beta cell apoptosis, primary screen, luminescence; INS-1E cytokine-induced death, ATP luminescence, 48 h; percent of positive-control rescue, neutral wells zero; protection from apoptosis, % (test concentration not listed); actives 0.8% (n = 300,000); AID 435005, 2010;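 active means all replicates at 75% or more, or half of them and the mean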;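 further: 0% = cytokine-treated negative control wells and 100% = positive control rescue; higher means more ATP so stronger rescue from cytokine killing; wells of about 40 µL received 100 nL stock; the first replicate is given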
ALR inh – inhibitors of human ALR sulfhydryl oxidase, primary screen, biochemical, H2O2 detection, HRP-luminol luminescence, single point; purified ALR, DTT oxidation; inhibition, % (no concentration beside the values); actives 3.8% (n = 290,000);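 active means mean and each replicate at 75% or more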;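 further: stock transfer was 7.5 nL into about 7.5 µL; 0% = neutral wells and 100% = wells with inactivated enzyme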
Target sequence (P55789 whole entry, looked up): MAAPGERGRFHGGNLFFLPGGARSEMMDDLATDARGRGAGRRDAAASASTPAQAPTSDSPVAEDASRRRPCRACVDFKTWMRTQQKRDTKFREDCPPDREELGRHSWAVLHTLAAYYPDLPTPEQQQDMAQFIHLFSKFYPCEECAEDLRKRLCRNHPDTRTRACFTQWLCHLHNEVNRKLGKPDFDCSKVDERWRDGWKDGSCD
Calb FLC – C. albicans growth inhibition with fluconazole, primary screen, CaCi-2 strain, Alamar Blue fluorescence | C. albicans CaCi-2 (fluconazole-resistant clinical isolate) + fluconazole, 48 h | growth inhibition, % (test concentration not listed) | actives 0.57% (n = 300,000) | AID 1979, 2009;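 active means most replicates above 75%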;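 further: all wells also contain fluconazole at 8 µg/ml as a sub-toxic cotreatment; 0% = median of DMSO wells and 100% = median of geldanamycin control wells; wells of about 8 µL received 7.5 nL stock; the first replicate is given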
Beta2AR agonist – beta2AR agonists driving receptor internalization, primary screen, cell-based, FAP fluorogen, flow cytometry | response, % (concentration not given with the values) | AID 504454, 2011 | actives 0.43% (n = 340,000) | Beta-2 adrenergic receptor (Homo sapiens), P07550 | Am2.2-beta2AR cells; reference of the scale not given here;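 active means response above a set limit, near 3 SD of response in nonfluorescent compounds, cut at about 42% in these data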;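 further: stock transfer was 100 nL into about 11 µL; a reference agonist was the positive control; negative values mostly stem from fluorescent compounds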
Target sequence (P07550 whole entry, looked up): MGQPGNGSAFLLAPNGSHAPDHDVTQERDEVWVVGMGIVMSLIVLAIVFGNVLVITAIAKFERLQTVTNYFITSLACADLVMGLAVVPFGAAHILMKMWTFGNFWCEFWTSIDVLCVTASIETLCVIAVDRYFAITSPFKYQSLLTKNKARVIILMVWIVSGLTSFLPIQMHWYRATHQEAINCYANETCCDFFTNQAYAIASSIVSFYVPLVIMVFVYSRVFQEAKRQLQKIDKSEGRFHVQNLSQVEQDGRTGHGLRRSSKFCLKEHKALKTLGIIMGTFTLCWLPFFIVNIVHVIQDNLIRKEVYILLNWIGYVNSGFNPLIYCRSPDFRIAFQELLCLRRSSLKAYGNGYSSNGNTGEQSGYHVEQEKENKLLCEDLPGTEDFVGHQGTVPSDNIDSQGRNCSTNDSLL
A1 inh – caspase 3/7 activation in MEF A1-2A-BIM cells, primary screen, A1 inhibitor project, cell-based, luminescence, HTS; AID 2462, 2010; actives 0.066% (n = 330,000); caspase activation, % (test concentration not listed); Caspase-Glo 3/7 luminescence, 3 h; percent of clofoctol response, vehicle zero;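 active means over half of replicate activation scores above 10%, or exactly half above 10 with the replicate mean above 10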;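 further: wells of about 30 µL received 50 nL stock; many hits fall short of the cut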
LANA-H2B inh – blockers of LANA interaction with H2A/H2B – biochemical, FP readout, HTS, primary screen | cell-free LANA-H2A/H2B peptide, fluorescence polarization | AID 2629, 2010 | actives 0.6% (n = 320,000) | inhibition, % (test concentration not listed); in the data active means inhibition mostly above about 10%, no sharp cut-off; inactive means mostly below about 6.7%;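 further: stock transfer was 7.5 nL into about 10 µL; 0% = median of vehicle wells and 100% = median of positive control wells; one replicate is shown; the record names a cut of 25% in any replicate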
rRNA inh HTS OD600 – also measured in rRNA inh HTS; calls as there; OD600 change, %; measured here: OD600 growth;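 optical density of the mix in the first replicate; 0 = DMSO median and -100 = no signal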
rRNA inh HTS RFP – also measured in rRNA inh HTS; calls as there; RFP signal change, %; measured here: RFP humanized mutant strains;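 first replicate; 0 = DMSO median and -100 = no signal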
* = called active by the depositor; . = not tested or not shown.

1. COc1ccc(C(=O)COC(=O)CCNS(=O)(=O)c2ccccc2)c(OC)c1
2. COc1cc(-c2nc(C(=O)NC3CCN(Cc4ccccc4)CC3)cc3c2[nH]c2ccccc23)cc(OC)c1OC
3. CCOC(=O)c1c(NC(=O)Cn2nc(C(=O)O)c3ccccc3c2=O)sc(CC)c1C
4. CC(=O)Nc1ccc(C2(O)COc3ccccc3O2)cc1 (stereo not drawn)
5. Cc1ccc(N2C(=O)c3ccc(N)cc3C2=O)cc1

| assay / compound | 1 | 2 | 3 | 4 | 5 |
| --- | --- | --- | --- | --- | --- |
| rRNA inh HTS | -5 | . | -16 | . | . |
| rRNA inh HTS OD600 | -10 | . | -21 | . | . |
| rRNA inh HTS RFP | -0.3 | . | -5.0 | . | . |
| T cruzi inh | 1 | 77* | 0 | -8 | -9 |
| Beta cell apopt | -6 | 36 | -5 | 1 | 0 |
| ALR inh | -4 | -9 | 12 | -4 | . |
| Calb FLC | . | -1 | -5 | 0 | -14 |
| Beta2AR agonist | 6 | 19 | 5 | 5 | -5 |
| A1 inh | 0.3 | 0.4 | -0.6 | -0.4 | -2.1 |
| LANA-H2B inh | -1.8 | 5.2 | 2.6 | 2.0 | -5.3 |

6. O=C(Oc1cccc(N2C(=O)CCC2=O)c1)C1CC(=O)N(c2ccc(F)cc2)C1 (stereo not drawn)
7. Cc1ccc(SCCNC(=O)c2ccccc2)cc1
8. COC(=O)c1ccc(NC(=S)N2CCC(C(N)=O)CC2)cc1
9. COc1ccccc1NC(=O)Nc1ccc2c(c1)nnn2C
10. COc1cccc(Cn2nnc(C(=O)Nc3cc(C)ccc3OC)c2N)c1

| assay / compound | 6 | 7 | 8 | 9 | 10 |
| --- | --- | --- | --- | --- | --- |
| rRNA inh HTS | 7 | . | 15 | . | . |
| rRNA inh HTS OD600 | 11 | . | 3 | . | . |
| rRNA inh HTS RFP | -0.6 | . | 2.0 | . | . |
| T cruzi inh | -12 | 5 | -10 | 1 | -14 |
| Beta cell apopt | -1 | 1 | -6 | -8 | -17 |
| ALR inh | 5 | -4 | 17 | . | 20 |
| Calb FLC | 20 | 0 | 1 | -1 | -9 |
| Beta2AR agonist | 8 | -1 | 0 | 6 | 18 |
| A1 inh | -0.2 | -0.4 | 0.2 | -2.1 | 0.6 |
| LANA-H2B inh | -2.4 | 3.9 | -1.7 | -6.2 | 15 |

11. C=CCN(CC=C)CCOc1cccc(Oc2ccccc2)c1
12. CCCCn1nc(NC(=O)CC(C)C)c2cc3cc(OC)ccc3nc21
13. COc1cccc(N2C(=O)CC(N3CCN(C(=O)c4ccco4)CC3)C2=O)c1 (stereo not drawn)
14. Cc1ccccc1CSCCNC(=O)COc1ccc(Cl)cc1
15. CSc1ncc(C(=O)Nc2ccccc2F)c(-c2ccccc2)n1

| assay / compound | 11 | 12 | 13 | 14 | 15 |
| --- | --- | --- | --- | --- | --- |
| rRNA inh HTS | -18 | 8 | . | . | 6 |
| rRNA inh HTS OD600 | -25 | 11 | . | . | 5 |
| rRNA inh HTS RFP | -2.1 | -1.0 | . | . | 2.9 |
| T cruzi inh | 9 | 2 | -8 | 1 | 5 |
| Beta cell apopt | -1 | 17 | -4 | 2 | -1 |
| ALR inh | 0 | . | -3 | -1 | -8 |
| Calb FLC | 11 | 4 | -15 | 2 | 0 |
| Beta2AR agonist | 0 | -8 | 4 | -7 | -3 |
| A1 inh | 0.1 | -0.1 | 0.2 | -0.9 | 0.2 |
| LANA-H2B inh | -4.5 | -0.3 | 2.0 | -2.5 | -0.6 |

Compounds from the list above that contain an aryl thioether with sulfur outside any ring, in the order listed:
7. Cc1ccc(SCCNC(=O)c2ccccc2)cc1
15. CSc1ncc(C(=O)Nc2ccccc2F)c(-c2ccccc2)n1

| assay / compound | 7 | 15 |
| --- | --- | --- |
| rRNA inh HTS | . | 6 |
| rRNA inh HTS OD600 | . | 5 |
| rRNA inh HTS RFP | . | 2.9 |
| T cruzi inh | 5 | 5 |
| Beta cell apopt | 1 | -1 |
| ALR inh | -4 | -8 |
| Calb FLC | 0 | 0 |
| Beta2AR agonist | -1 | -3 |
| A1 inh | -0.4 | 0.2 |
| LANA-H2B inh | 3.9 | -0.6 |

Complete entries, looked up by structure. Values in the order: rRNA inh HTS | rRNA inh HTS OD600 | rRNA inh HTS RFP | T cruzi inh | Beta cell apopt | ALR inh | Calb FLC | Beta2AR agonist | A1 inh | LANA-H2B inh
C=CCN(CC=C)CCOc1cccc(Oc2ccccc2)c1 reads -18 | -25 | -2.1 | 9 | -1 | 0 | 11 | 0 | 0.1 | -4.5
Cc1ccc(SCCNC(=O)c2ccccc2)cc1 reads . | . | . | 5 | 1 | -4 | 0 | -1 | -0.4 | 3.9

Next structures:
16. NC(=O)c1ccc(NC(=O)CSC(=O)c2ccccc2)cc1
17. Cc1ccc(Oc2ncccc2COC(=O)Nc2ccccc2C)cc1
18. Cc1nn(CC(=O)NCc2cccc(F)c2)c(=O)c2cccn12
19. COC(=O)c1c(NC(=O)c2ccco2)sc2c1CCN(C(C)C)C2
20. COc1ccc(-c2cc(C(=O)Nc3c(C)n(C)n(-c4ccccc4)c3=O)c3ccccc3n2)cc1OC

| assay / compound | 16 | 17 | 18 | 19 | 20 |
| --- | --- | --- | --- | --- | --- |
| rRNA inh HTS | 4 | 7 | 4 | 15 | -7 |
| rRNA inh HTS OD600 | 9 | 2 | 5 | 7 | -3 |
| rRNA inh HTS RFP | -0.8 | -1.2 | 2.3 | 4.0 | -0.9 |
| T cruzi inh | . | 7 | -13 | 20 | 21 |
| Beta cell apopt | -2 | -5 | -1 | 5 | 1 |
| ALR inh | 99* | -3 | 1 | 2 | -1 |
| Calb FLC | . | -6 | 23 | -5 | 2 |
| Beta2AR agonist | 3 | 1 | -3 | -23 | 1 |
| A1 inh | 0.1 | -0.7 | -0.8 | -0.9 | -0.4 |
| LANA-H2B inh | -1.2 | -3.8 | -15 | -7.4 | 1.9 |

Entries listed so far marked active in ALR inh:
cpd	canonical_smiles	rRNA inh HTS	rRNA inh HTS OD600	rRNA inh HTS RFP	ALR inh	Beta2AR agonist	A1 inh	LANA-H2B inh
16	NC(=O)c1ccc(NC(=O)CSC(=O)c2ccccc2)cc1	4	9	-0.8	99*	3	0.1	-1.2

(next part)
21. COCCCNS(=O)(=O)c1ccc2c(c1)OCCO2
22. CN1CCC(N(C)C(=O)COc2ccc(S(=O)(=O)N3CCOCC3)cc2)CC1
23. O=C(NNc1cccc(Cl)n1)Nc1cccc(C(F)(F)F)c1
24. CC12COC3(C(=O)Nc4ccc5ccccc5c4)CC1CCC32C (stereo not drawn)
25. COc1cc(SC)ccc1C(=O)OCC(=O)N1CCN(C(C)=O)CC1

| assay / compound | 21 | 22 | 23 | 24 | 25 |
| --- | --- | --- | --- | --- | --- |
| rRNA inh HTS | . | 2 | -24 | -18 | 5 |
| rRNA inh HTS OD600 | . | 10 | -38 | -22 | 5 |
| rRNA inh HTS RFP | . | -8.0 | -6.2 | -3.9 | -2.5 |
| T cruzi inh | -6 | 33 | -4 | 13 | -2 |
| Beta cell apopt | . | -3 | -11 | 3 | 0 |
| ALR inh | . | -1 | -4 | -30 | 2 |
| Calb FLC | -2 | 6 | -16 | 1 | 1 |
| Beta2AR agonist | -1 | -9 | -17 | 5 | -5 |
| A1 inh | 0.8 | -0.7 | -0.2 | 0.5 | -0.2 |
| LANA-H2B inh | 1.2 | 6.8 | 3.6 | 32* | 1.9 |

Of the compounds above, 2 contain a furan ring, fused or not:
13. COc1cccc(N2C(=O)CC(N3CCN(C(=O)c4ccco4)CC3)C2=O)c1 (stereo not drawn)
19. COC(=O)c1c(NC(=O)c2ccco2)sc2c1CCN(C(C)C)C2

| assay / compound | 13 | 19 |
| --- | --- | --- |
| rRNA inh HTS | . | 15 |
| rRNA inh HTS OD600 | . | 7 |
| rRNA inh HTS RFP | . | 4.0 |
| T cruzi inh | -8 | 20 |
| Beta cell apopt | -4 | 5 |
| ALR inh | -3 | 2 |
| Calb FLC | -15 | -5 |
| Beta2AR agonist | 4 | -23 |
| A1 inh | 0.2 | -0.9 |
| LANA-H2B inh | 2.0 | -7.4 |

More results follow.
26. CNC(=S)NNC(=O)c1sccc1OCc1ccc(C)cc1
27. O=C1/C(=C/c2cccnc2)Oc2cc(OS(=O)(=O)c3ccc(F)cc3)ccc21
28. COc1ccccc1N1CCN(C(=O)CSc2nc(-c3ccccc3)cc(=O)[nH]2)CC1
29. CCn1c(C)c(C)c2cc(C(=O)N3CCc4ccccc4C3)ccc21

| assay / compound | 26 | 27 | 28 | 29 |
| --- | --- | --- | --- | --- |
| rRNA inh HTS | . | 19 | . | -52 |
| rRNA inh HTS OD600 | . | 14 | . | -80 |
| rRNA inh HTS RFP | . | -1.2 | . | 1.4 |
| T cruzi inh | 8 | 0 | -6 | 5 |
| Beta cell apopt | -10 | 3 | 8 | 113* |
| ALR inh | 25 | -8 | 1 | -6 |
| Calb FLC | -3 | -11 | 5 | -4 |
| Beta2AR agonist | -1 | 14 | 3 | -3 |
| A1 inh | 0.0 | -0.5 | 0.3 | -0.6 |
| LANA-H2B inh | -2.6 | 3.7 | -6.0 | 5.2 |

Only part of the results is shown; rates above refer to the full screens.
